RVFV N-RNA inh – blocks Rift Valley Fever Virus nucleoprotein binding to RNA | RVFV N-RNA binding, fluorescence polarization; active compounds read low | % bound, % (test concentration not listed) | hit rate 0.1% among 20,000 | AID 651828;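 active means between 0 and 58% in either replicate with normal brightness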;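 further: 100 nL library stock added to about 12 µL; 100% = protein and probe without compound and 0% = probe alone; numbers are from one replicate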
Target sequence (P21700 whole entry, looked up): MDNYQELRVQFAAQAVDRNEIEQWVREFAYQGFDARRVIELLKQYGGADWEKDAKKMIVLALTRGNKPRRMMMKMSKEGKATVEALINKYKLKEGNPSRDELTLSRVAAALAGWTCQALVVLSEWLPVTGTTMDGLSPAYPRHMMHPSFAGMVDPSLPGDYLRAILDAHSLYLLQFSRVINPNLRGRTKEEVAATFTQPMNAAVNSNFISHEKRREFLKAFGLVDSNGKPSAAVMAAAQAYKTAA
* = called active by the depositor; & = joins results of further samples.

SMILES	RVFV N-RNA inh
Cc1ccc(C=C2C(=O)OC(C)(C(C)(C)C)OC2=O)o1 (stereo unspecified)	111
CC(=O)N1C(=O)C(=C2C=C(C)OC(C)=C2)c2ccccc21	88
O=C(CCn1c(=O)oc2ccccc21)Nc1ccc(Cl)cc1	90
CN1CCc2c1nc1ccccc1c2N=C1CCCN1c1ccccc1	94
Cc1ccc(-n2c(C)cc(=O)cc2C)cc1	93
COCCNC(=O)c1ccccc1-c1ccccc1C(=O)O	99
CC(=O)Nc1ccc(OC(C)=O)cc1	105
COc1ccc(NC(=O)C(=S)N2CCCCC2)cc1	89
CS(=O)(=O)NCC(c1ccc2c(c1)OCO2)N1CCN(c2ccccc2)CC1 (stereo unspecified)	90
CC(C)CCn1c2ccccc2c2ccccc21	94
Cc1cc(C)c2c(CC(=O)N(C)C)coc2c1	110
Cc1sc2nc(NCCO)[nH]c(=O)c2c1C	95
CCCCc1nnc(NC(=O)Cn2cnc3ccccc3c2=O)s1	98
Cc1cc(Nc2ccccc2)n(C(=O)c2ccc(N)cc2)n1	93
CSc1nc2ccccc2n1C(=O)CCN1C(=O)/C(=C/c2cccs2)SC1=S	108
CN(C)/C=C1/C(=O)N(c2ccccc2)N=C1C(C)(C)C	97
Cn1cc(NC(=O)N(CCO)Cc2ccccc2)c2ccccc21	98
COC(=O)CC1=C(C(=O)OC)C2(C(=O)N1)C(C#N)=C(N)Oc1ccccc12 (stereo unspecified)	97
O=C1CC(N2CCOCC2)C(=O)N1C1CCCC1 (stereo unspecified)	99
COc1ccc(CSc2nc(C)cc(=O)[nH]2)cc1Br	91
CC(C)Oc1cccc(NC(=O)Nc2ccccc2)c1	95
CSc1nnc(C(C)(C)C)c(=O)n1/N=C/c1ccccc1	97
Cc1cc(Br)ccc1OCCCN1C(=O)CCN1c1ccccc1	104
CCCCN(CC)c1nc(C)nc2c1c(C)cn2-c1c(C)cc(C)cc1C	107
CN/C(=C\[N+](=O)[O-])NCCSCc1csc(CN(C)C)n1	91
Nc1cc(=O)[nH]c(SCc2ccccc2CSc2nc(N)cc(=O)[nH]2)n1	108
CC1(C)CC2CC(C)(CN2Cc2cccnc2)C1 (stereo unspecified)	99
COc1ccc2c(c1)c(CC(=O)OCC(=O)O)c(C)n2C(=O)c1ccc(Cl)cc1	97
CCOC(=O)c1sc(NC(=O)CSC2=NN3CCCC(=O)N=C3S2)c(C(=O)OCC)c1C	93
O=C1C2CCN(CC2)C12CC2c1ccc(C(F)(F)F)cc1 (stereo unspecified)	85
O=C(O)C1CCCCCN1 (stereo unspecified)	98
O=C(Nc1ccccc1)N1CCN(C(=O)C2CCCO2)CC1 (stereo unspecified)	92
CO/N=C(\C(=O)N[C@@H]1C(=O)N2C(C(=O)[O-])=C(C[N+]3(C)CCCC3)CS[C@H]12)c1csc(N)n1	101
CC(C(=O)NC1CCCC1)N(c1ccc(F)cc1)S(C)(=O)=O (stereo unspecified)	97
CN(C)N1C(=O)c2cccc3c(Br)ccc(c23)C1=O	101
C=CCn1c(CNC(=O)c2cccs2)nnc1SCC(=O)Nc1ccc(C(=O)O)cc1	97
Nc1nc(Nc2ccccc2)n(-c2ccccc2)c(=O)n1	78
COC(=O)Nc1sc(C)cc1C(=O)OC	98
O=C(O)CC12OC3C4C5CC(C6C5C3C61)C42 (stereo unspecified)	91
CCc1cc2cc(C(=O)Nc3ccccc3)sc2s1	92
CCOCC(O)CSc1ccccc1 (stereo unspecified)	96
Nc1ccn([C@@H]2O[C@H](CO)[C@@H](O)C2O)c(=O)n1 (stereo partly specified)	106&98
CC(C)C(=O)Nc1ccc(CN2CCCCC2)cc1	104
CC(=O)Oc1cc(OC(C)=O)c2c3c(c(=O)oc2c1)CCCC3	96
c1ccc(Oc2ccc(NC3=NCCC3)cc2)cc1	100
Cc1ccc(O)c(N=Nc2ccccc2)n1	89
O=C(COc1coc(CN2CCN(Cc3ccccc3)CC2)cc1=O)N1CCCCC1	102
CCOC(=O)c1cnn2c(NC(=O)c3c(Br)cnn3C)c(C#N)nnc12	92
OC1C=CSc2nc3ccccc3n21 (stereo unspecified)	106
C#CCSc1nc(COC)cc(=O)[nH]1	94
Nc1nc2c(C(=O)NCc3ccncc3)nnn2c2ccccc12	98
CCN(CC)CC(=O)N1N=C(c2cccs2)CC1c1ccccc1O (stereo unspecified)	101
CCN(CC1COc2ccccc2O1)C(=S)Nc1ccccc1 (stereo unspecified)	98
CC(O)(CC(=O)O)C12CC3CC(CC(C3)C1)C2 (stereo unspecified)	93
O=C(O)/C=C/C(=O)N1CCN(c2ccc(C(F)(F)F)cn2)CC1	94
C=CCNC(=O)COc1ccccc1	99
CN1C(=O)/C(=C/c2ccco2)N(C)C1=S	96
CN(C(=O)COc1cccc(CO)c1)c1ccccc1	97
COc1ccccc1OCC(O)CN1CCN(CC(=O)Nc2c(C)cccc2C)CC1 (stereo unspecified)	96&98&95
CSc1nnnn1-c1cccc2ccccc12	94
The listing continues.
SMILES	RVFV N-RNA inh
CNC(=O)c1ccccc1-c1nc(-c2ccc(Cl)cc2)no1	97
C=C1C[C@@]23CC[C@H]4[C@@](C)(CCC[C@@]4(C)C(=O)OC4OC(CO)C(O)C(O)C4O)[C@@H]2CC[C@]1(OC1OC(CO)C(O)C(O)C1OC1OC(CO)C(O)C(O)C1O)C3 (stereo partly specified)	90
O=C1NC(=Nc2ccccc2)/C(=C/c2cccs2)S1	99
Cn1c(O)c(N=O)c2ccccc21	109
CC(C)(C)c1csc(-c2ccc(-c3ccccn3)s2)n1	91
COc1ccc2c(C)c(CC(=O)O)c(=O)oc2c1	99
COc1cc(SC)ccc1C(=O)Nc1cccc(-c2nncn2C)c1	89
C=CCN1C(=O)NC(=O)C(CCc2ccccn2)(CCc2ccccn2)C1=O	95
COc1ccc(CCNC2CC(=O)N(Cc3ccccc3)C2=O)cc1OC (stereo unspecified)	85
Cc1ccc(NC(=S)NN(C)C)cc1C	91
COc1ccc(-n2nnnc2-c2ccccc2)cc1	100
CCCSc1nnc(NC(=O)C(CC)CC)s1	89
O=C(O)c1cccc(COc2cccc(Cl)c2)c1	97
COc1ccc(CCN2C(=O)CC(NNc3ccccc3)C2=O)cc1OC (stereo unspecified)	88
N#Cc1nc(Cc2ccccc2)oc1NCc1ccco1	107
CC(NC(=O)NCC1CCCO1)(C(F)(F)F)C(F)(F)F (stereo unspecified)	103
CCOC(=O)N1CCN(C2CCN(CC)CC2)CC1	90
CC(C)(C)OC(=O)c1c(F)c(F)c(F)c(F)c1F	91
Nc1c2c(nc3cccc(F)c13)OCCC2	99
CCSc1nnnn1-c1ccccc1	91
O=C(c1ccccc1)c1ccsc1	91
O=C1NN=C2C3CC(CC12)C1=NNC(=O)C1C3 (stereo unspecified)	95
CC1CCCCN1S(=O)(=O)c1ccc(C(=O)Nc2ccc3c(c2)C(=O)NC3=O)cc1 (stereo unspecified)	98
CCN(CC)CCOC(=O)C(O)(c1ccccc1)c1ccccc1	102
NS(=O)(=O)c1ccc(-c2ccc(C3Nc4ccccc4-c4nc5ccccc5n43)o2)cc1 (stereo unspecified)	94
CCOc1ccc(N=C(N)N=C(N)N)cc1	100
CCNS(=O)(=O)c1ccc(OC)c(C(C)(C)C)c1	97
CNC(=O)c1cccc(S(=O)(=O)N(C)C)c1	91
FC(F)(F)c1ccc(CSc2ncnc3c2oc2ccccc23)cc1	98
CCn1c2ccccc2c2cc(/C=C(\C#N)S(=O)(=O)c3ccccc3)ccc21	100
CC(=O)Nc1c(Cl)n(C(C)=O)c2ccccc12	96
CCOc1ccc2oc(C(C)(C)C)c(C(=O)OC)c2c1	93
O=C(N/N=C/c1ccc(Cl)cc1)c1csc(CS(=O)(=O)Cc2ccco2)n1	92
COC(=O)c1scc(S(=O)(=O)Cc2ccco2)c1NN=C(C#N)C#N	97
O=CN1CCN(C(=O)CC(c2ccccc2)c2cc(Br)ccc2O)CC1 (stereo unspecified)	105
COc1cc2ncn(-c3cc(OCc4ccc(S(C)(=O)=O)cc4)c(C(N)=O)s3)c2cc1OC	100

20 of these compounds in another layout.
| smiles | RVFV N-RNA inh |
| --- | --- |
| CCOC(=O)N1CCN(C2CCN(CC)CC2)CC1 | 90 |
| CC(C)(C)OC(=O)c1c(F)c(F)c(F)c(F)c1F | 91 |
| Nc1c2c(nc3cccc(F)c13)OCCC2 | 99 |
| CCSc1nnnn1-c1ccccc1 | 91 |
| O=C(c1ccccc1)c1ccsc1 | 91 |
| O=C1NN=C2C3CC(CC12)C1=NNC(=O)C1C3 (stereo unspecified) | 95 |
| CC1CCCCN1S(=O)(=O)c1ccc(C(=O)Nc2ccc3c(c2)C(=O)NC3=O)cc1 (stereo unspecified) | 98 |
| CCN(CC)CCOC(=O)C(O)(c1ccccc1)c1ccccc1 | 102 |
| NS(=O)(=O)c1ccc(-c2ccc(C3Nc4ccccc4-c4nc5ccccc5n43)o2)cc1 (stereo unspecified) | 94 |
| CCOc1ccc(N=C(N)N=C(N)N)cc1 | 100 |
| CCNS(=O)(=O)c1ccc(OC)c(C(C)(C)C)c1 | 97 |
| CNC(=O)c1cccc(S(=O)(=O)N(C)C)c1 | 91 |
| FC(F)(F)c1ccc(CSc2ncnc3c2oc2ccccc23)cc1 | 98 |
| CCn1c2ccccc2c2cc(/C=C(\C#N)S(=O)(=O)c3ccccc3)ccc21 | 100 |
| CC(=O)Nc1c(Cl)n(C(C)=O)c2ccccc12 | 96 |
| CCOc1ccc2oc(C(C)(C)C)c(C(=O)OC)c2c1 | 93 |
| O=C(N/N=C/c1ccc(Cl)cc1)c1csc(CS(=O)(=O)Cc2ccco2)n1 | 92 |
| COC(=O)c1scc(S(=O)(=O)Cc2ccco2)c1NN=C(C#N)C#N | 97 |
| O=CN1CCN(C(=O)CC(c2ccccc2)c2cc(Br)ccc2O)CC1 (stereo unspecified) | 105 |
| COc1cc2ncn(-c3cc(OCc4ccc(S(C)(=O)=O)cc4)c(C(N)=O)s3)c2cc1OC | 100 |

New compounds follow
SMILES	RVFV N-RNA inh
CCCNS(=O)(=O)c1cc2c3c(c1)CCC(=O)N3CCC2	92
CC(C)CNS(=O)(=O)c1ccc(CCC(=O)NCc2ccncc2)cc1	94
CCOc1cc(C(=O)n2cc(C)cn2)cc(OCC)c1OCC	92
CCCCCN=Cc1sc2ccc(OCC)cc2c1O	107
O=C(Nc1ncn[nH]1)c1ccccc1CCc1ccccc1	98
CC(C)CNc1nc2c(N)ncnc2n1[C@H]1O[C@@H](CO)[C@H](O)[C@@H]1O	107
O=C(COC(=O)c1ccco1)c1ccc(OC(=O)c2ccccc2)cc1	101
O=C(O)CCCn1cc(NC(=O)Cc2ccccc2)cn1	93
CCC(C)Cn1c(C(C)C)nc2ccccc21 (stereo unspecified)	90
Cc1ccc(NC(=O)CC2SC(=O)N(CN3CCCCC3)C2=O)cc1 (stereo unspecified)	98
O=C(CCNc1ccc(Oc2ccccc2)cc1)c1ccco1	100
Cc1nc(SCCCSc2n[nH]c(C)n2)n[nH]1	105
COC(=O)Cn1c(=NC(=O)C(C)(C)C)sc2cc(F)ccc21	106
CCOC(=O)N1CCN(C(=O)c2cnc3n(c2=O)CCS3)CC1	98
COC(=O)c1c(C)nc2nonc2c1N	91
Nc1ccc(Sc2ccc(N)cc2C(=O)O)c(C(=O)O)c1	93
COC(=O)C1SC(C)SCC1=O (stereo unspecified)	102
O=C(N/N=C/c1cccnc1)c1ccc(CN2CCOCC2)cc1	102
N#CC(C(=O)OC1CCCCC1)c1nc2ccccc2nc1N1CCCCC1 (stereo unspecified)	90
N#C/C(=N\Nc1cccc(Cl)c1)C(=O)c1ccco1	93
Cn1c(=O)c(-c2nc(C(C)(C)C)cs2)cn(-c2ccccc2)c1=O	91
CN(C)C=C1C(=O)CC(c2ccc(Cl)cc2)CC1=O (stereo unspecified)	107
N#Cc1cccnc1NNC(=O)CCC(=O)O	77
O=C(COc1ccccc1)NC(C(=O)O)C12CC3CC(CC(C3)C1)C2 (stereo unspecified)	87

Part of the list above in order of molar mass, smallest number first:
SMILES	RVFV N-RNA inh
COC(=O)C1SC(C)SCC1=O (stereo unspecified)	102
Nc1ccc(Sc2ccc(N)cc2C(=O)O)c(C(=O)O)c1	93
CCOC(=O)N1CCN(C(=O)c2cnc3n(c2=O)CCS3)CC1	98

Continued.
SMILES	RVFV N-RNA inh
C#CCOC(=O)Nc1nc(C)oc1C(F)(F)F	98
O=C(Cc1ccccc1)Nc1ccccc1F	92
CN(C(=O)Nc1ccc(C(C)(C)C)cc1)C1CCCCC1	105
O=C(Nc1ccc(Cl)cc1)N1CCOC1c1cccs1 (stereo unspecified)	98
O=C(NC1CCS(=O)(=O)C1)C1CCN(c2nccc(C(F)(F)F)n2)CC1 (stereo unspecified)	103
O=S(N=C(c1ccccc1)c1ccccc1)c1ccccc1 (stereo unspecified)	90
CC(=O)Oc1c(C)cc(C)c2ccc(C)nc12	99
CC(C)NCC(O)COc1cccc2ccccc12 (stereo unspecified)	99&99&93
COCCNC(=O)CN1C(=O)COc2ccccc21	96
C[N+]1(C)C2CCC1CC(OC(=O)C(CO)c1ccccc1)C2 (stereo unspecified)	93&98
CN1C2CCC1CC(OC(=O)c1c[nH]c3ccccc13)C2 (stereo unspecified)	105&97
NS(=O)(=O)c1cc2c(cc1Cl)NCNS2(=O)=O	98&96
OCCn1c(CN2CCCCC2)nc2ccccc21	98
CCc1ccccc1-n1nnnc1SC1OC(=O)c2ccccc21 (stereo unspecified)	96
Cn1ccnc1	90
Cc1ccc(C2CC(c3cccs3)=NN2C(=O)CSc2nnc(CNC(=O)c3cccs3)n2C)cc1 (stereo unspecified)	99
O=C1/C(=C\c2ccco2)SC(=S)N1CCC(=O)N(CCO)c1ccccc1	107
Cc1sc(NC(=O)c2ccc(Br)s2)c(C(N)=O)c1C	95
O=C(O)c1ccc(Br)cn1	101
C[C@]12C=CC(=O)C=C1CC[C@@H]1C2=CC[C@]2(C)[C@@H](C(=O)CN3CCN(c4cc(N5CCCC5)nc(N5CCCC5)n4)CC3)CC[C@@H]12	95
CC(C)OP(=O)(c1ccccc1)c1ccccc1	95
CCOC(=O)C1=C(C)NC(SCc2cc(=O)[nH][nH]2)=C(C#N)C1c1cccs1 (stereo unspecified)	93
C/C(=N/O)c1ccc(N)cc1	96
CCOC(=O)N1CCN(CC2=CCC3CC2C3(C)C)CC1 (stereo unspecified)	106
CC(C)n1cnc2c(Nc3cccc(Cl)c3)nc(NCCO)nc21	102
FC(F)(F)C1=CC=NCCN1	99
Nc1ccc2c(c1)S(=O)(=O)c1cc(N)ccc1O2	110

Source: PubChem BioAssay (ICCB-Longwood Screening Facility, Harvard Medical School)

Only part of the results is shown; count on the stated rates, not on these rows.
